Compound activity as filed in PubChem.
Vaccinia Venus – inhibitors of vaccinia virus (Venus reporter); Vaccinia virus Venus reporter expression, fluorescence; Potency, µM (doses to about 36.5 µM), inactives show at the top dose activity change, negative = inhibition, usual class: inhibitors; 330,000 tested, 0.46% active; AID 720580; active means well fitted inhibition curve with a large enough effect; inconclusive means small, poorly fitted or top-dose-only effect; inactive means no such curve, though single readings can be large or run the other way; tested in A549 cells; note: nearly all actives have a fitted effect of over 30% in size; inactives centre near -10
Vaccinia mCherry – vaccinia inhibition (mCherry reporter) | Vaccinia virus mCherry reporter infection, fluorescence; about a quarter of the inactives have no number | Potency, µM (series often up to 36.5 µM), for the others: top-dose activity change, negative = inhibition, most hits filed as inhibitors | 310,000 tested, 0.63% active; active = well fitted inhibition curve with a large enough effect; inconclusive = small, poorly fitted or top-dose-only effect; inactive = no such curve, though single readings can be large or run the other way; tested in A549 cells; note: nearly all actives have a fitted effect of over 35% in size; inactives centre near -10
Numbers without * were called inactive; i = inactive; ? = inconclusive; nt = not tested or not shown. % is set by controls: 0 for no effect and ±100 for the full control effect; potency is the fitted concentration of half-maximal effect. Rows were taken by chance; 0.82% or so of the library scored in one or more.

[1] Brc1c(-c2ccccc2)nc2n1Cc1ccccc1-2
  Vaccinia Venus = -11.7%; Vaccinia mCherry = i

[2] CCCc1ccc(C(=O)NNC(=O)c2ccc(Cl)cc2)cc1
  Vaccinia Venus = -11.4%; Vaccinia mCherry = -3.8%

[3] COc1ccc(-c2noc(-c3ccco3)n2)cc1OC
  Vaccinia Venus = -13.7%; Vaccinia mCherry = i

[4] Cc1cccc(C)c1-n1nnnc1C(c1ccnc2ccccc12)N1CCN(CC(=O)NC(C)C)CC1 (stereo not given)
  Vaccinia Venus = -2.6%; Vaccinia mCherry = 1.6%

[5] CC1CC(C)CN(CC(=O)NCCc2ccc(S(N)(=O)=O)cc2)C1 (stereo not given)
  Vaccinia Venus = 5.2%; Vaccinia mCherry = i

[6] CCCCC(O)(CCCC)C(=O)NN(C(=O)CCl)c1ccccc1
  Vaccinia Venus = ?; Vaccinia mCherry = -15.1%

[7] CCN(CCCNC(=O)CNC(=O)c1nn(-c2ccc(OC)c(OC)c2)c(=O)c2ccccc12)c1ccccc1
  Vaccinia Venus = -1.1%; Vaccinia mCherry = -1.0%

[8] Cc1cccc(NS(=O)(=O)c2cn(C)c(=O)n(C)c2=O)c1C
  Vaccinia Venus = -9.6%; Vaccinia mCherry = i

[9] COc1ccc(CNC(=S)N/N=C/c2ccc(O)c(OC)c2)cc1
  Vaccinia Venus = -17.6%; Vaccinia mCherry = -27.7%

[10] COc1ccc(NC(=O)CN2C(=O)NC(C)(c3ccccc3)C2=O)cn1 (stereo not given)
  Vaccinia Venus = -4.4%; Vaccinia mCherry = -11.4%

[11] Cc1ccc(NC(=O)CN2C(=O)NC(C)(C3CC3)C2=O)cc1S(=O)(=O)N1CCCCC1 (stereo not given)
  Vaccinia Venus = -15.9%; Vaccinia mCherry = -8.5%

[12] O=C(Nc1ccc(-c2nnn(CC(=O)N3CCN(C(=O)c4ccco4)CC3)n2)cc1)c1ccc(F)cc1
  Vaccinia Venus = -17.7%; Vaccinia mCherry = -22.1%

[13] CCCN(CCC)C(=O)Cn1c(=O)n(-c2ccc(OC)cc2)c(=O)c2ccc(C(=O)NCc3ccc(C)cc3)cc21
  Vaccinia Venus = -21.7%; Vaccinia mCherry = -11.5%

[14] CCN1c2ccccc2-n2cccc2C12CCN(C(=O)Nc1ccccc1Br)CC2
  Vaccinia Venus = -21.1%; Vaccinia mCherry = -19.4%

[15] COc1ccc(CN2CCNC(=O)C2CC(=O)NC2CCOCC2)cc1C (stereo not given)
  Vaccinia Venus = -6.6%; Vaccinia mCherry = -26.0%

[16] COc1ccccc1NC(=O)CCCCC(=O)Nc1ccccc1OC
  Vaccinia Venus = -18.3%; Vaccinia mCherry = -25.3%

[17] Cc1ccc2nc(-c3cccc(Cl)c3)c(Nc3ccc4c(c3)OCO4)n2c1
  Vaccinia Venus = 2.9%; Vaccinia mCherry = -0.2%

[18] CC(=O)NC1CCC(OC(=O)Nc2ccccc2)CC1 (stereo not given)
  Vaccinia Venus = -7.9%; Vaccinia mCherry = -14.5%

[19] CN1CCC[C@@H]1CCNC(=O)c1cccc2c1C(=O)c1ccc(N3CCCC3)cc1S2(=O)=O
  Vaccinia Venus = 18.5%; Vaccinia mCherry = i

[20] C/C(CC(=O)Nc1ccc(Cl)cc1Cl)=N\NC(=O)c1ccco1
  Vaccinia Venus = -25.4%; Vaccinia mCherry = ?

[21] COC(=O)/C=C\C(C#N)(C#N)N=Cc1ccc(OC)cc1
  Vaccinia Venus = -21.4%; Vaccinia mCherry = -19.5%

[22] COc1ccc(OC)c(-c2cc(Cl)c3c(c2)CC(CNC(=O)[C@@H]2CCCN2C(C)=O)O3)c1 (stereo not given in full)
  Vaccinia Venus = 7.1%; Vaccinia mCherry = -4.3%

[23] COCCn1c(SCc2cc(=O)n3ccsc3n2)nnc1-c1ccncc1
  Vaccinia Venus = -6.6%; Vaccinia mCherry = -3.5%

[24] CNC(=S)N/N=C/c1ccc(OCc2ccccc2)c(Br)c1
  Vaccinia Venus = ?; Vaccinia mCherry = ?

[25] CN(C)S(=O)(=O)c1cccc(NC(=O)COc2ccc(C(=O)c3ccccc3)cc2)c1
  Vaccinia Venus = -16.5%; Vaccinia mCherry = -22.1%

[26] Cc1cccc(-n2c(O)c(C=Nc3ccc(Br)cn3)c(=O)[nH]c2=O)c1
  Vaccinia Venus = 2.5%; Vaccinia mCherry = 13.3%

[27] CC1CCN(S(=O)(=O)c2ccc3c(c2)N(CC(=O)NCCc2ccc(Cl)cc2)C(=O)CO3)CC1
  Vaccinia Venus = -10.7%; Vaccinia mCherry = -7.8%

[28] Cc1c(C)n2c(SCC(=O)NCc3ccc4c(c3)OCO4)nnc2[nH]c1=O
  Vaccinia Venus = -12.1%; Vaccinia mCherry = -11.7%

[29] CCCc1cc(-c2n[nH]c(=S)n2C(C)c2ccccc2)cs1 (stereo not given)
  Vaccinia Venus = -14.6%; Vaccinia mCherry = -19.8%

[30] CN(CCc1cn[nH]c1)C(=O)C1CCC(=O)N(CC2CCCCC2)C1 (stereo not given)
  Vaccinia Venus = -9.9%; Vaccinia mCherry = i

Entries of single compounds, quoted from the list. Order of values: Vaccinia Venus | Vaccinia mCherry
Results for CC(=O)NC1CCC(OC(=O)Nc2ccccc2)CC1 (stereo not given) → -7.9% | -14.5%
Results for CN(CCc1cn[nH]c1)C(=O)C1CCC(=O)N(CC2CCCCC2)C1 (stereo not given) → -9.9% | i
Results for CN1CCC[C@@H]1CCNC(=O)c1cccc2c1C(=O)c1ccc(N3CCCC3)cc1S2(=O)=O → 18.5% | i
Results for Cc1ccc2nc(-c3cccc(Cl)c3)c(Nc3ccc4c(c3)OCO4)n2c1 → 2.9% | -0.2%

(list continues)
[31] Cc1cccc(Nc2nc(N)c([N+](=O)[O-])c(NCc3ccco3)n2)c1
  Vaccinia Venus = ?; Vaccinia mCherry = ?

[32] C[C@H]1CN([C@@H](C)CO)C(=O)CCCn2nncc2CO[C@@H]1CN(C)Cc1ccc2c(c1)OCO2
  Vaccinia Venus = -12.3%; Vaccinia mCherry = -23.4%

[33] CC(=O)C1=C(O)C(=O)N(CCCN2CCOCC2)C1c1ccccc1[N+](=O)[O-] (stereo not given)
  Vaccinia Venus = -0.6%; Vaccinia mCherry = -1.4%

[34] COCCOC(=O)C1=C(C)NC2=C(C(=O)CCC2)C1c1ccc(N(C)C)cc1 (stereo not given)
  Vaccinia Venus = -8.5%; Vaccinia mCherry = i

[35] COc1cccc(-c2cc3nc(-c4ccccc4)cc(N4CCC5(CC4)OCCO5)n3n2)c1
  Vaccinia Venus = -16.1%; Vaccinia mCherry = ?

[36] CC(=O)N/N=C(\C)CC(=O)Nc1ccc2c(c1)OCCO2
  Vaccinia Venus = -11.2%; Vaccinia mCherry = i

[37] OCC#Cc1cnc2ccccc2c1
  Vaccinia Venus = -0.6%; Vaccinia mCherry = nt

[38] COc1ccc(CNCC(=O)Nc2cccc(S(N)(=O)=O)c2)cc1
  Vaccinia Venus = -6.1%; Vaccinia mCherry = i

[39] COc1ccccc1NC(=O)Cn1nnc(C(=O)NCCc2ccccc2)c1N
  Vaccinia Venus = -16.9%; Vaccinia mCherry = i

[40] CC(=O)N(c1cccc(Br)c1)C1C=CS(=O)(=O)C1 (stereo not given)
  Vaccinia Venus = -4.2%; Vaccinia mCherry = i

[41] Cc1cccc(Cc2nnc(CCC(=O)NCc3ccncc3C)o2)c1
  Vaccinia Venus = 1.1%; Vaccinia mCherry = -3.3%

[42] CCC[C@H]1COCCS(=O)(=O)N1Cc1ccc(F)cc1
  Vaccinia Venus = -15.9%; Vaccinia mCherry = -21.7%

[43] Cc1cc(Oc2ccc([N+](=O)[O-])cc2)nc(N2CCOCC2)n1
  Vaccinia Venus = 15.6%; Vaccinia mCherry = i

[44] C=CCn1c(C)cc(C(=O)COc2nncc3ccccc23)c1C
  Vaccinia Venus = -16.2%; Vaccinia mCherry = -23.6%

[45] CC(C)(C)N1C(=O)c2ccccc2NC(=O)N1Cc1ccc(Br)cc1
  Vaccinia Venus = ?; Vaccinia mCherry = i

15 compounds already listed, arranged by SMILES length, rising.
[37] OCC#Cc1cnc2ccccc2c1
  Vaccinia Venus = -0.6%; Vaccinia mCherry = nt

[42] CCC[C@H]1COCCS(=O)(=O)N1Cc1ccc(F)cc1
  Vaccinia Venus = -15.9%; Vaccinia mCherry = -21.7%

[24] CNC(=S)N/N=C/c1ccc(OCc2ccccc2)c(Br)c1
  Vaccinia Venus = ?; Vaccinia mCherry = ?

[36] CC(=O)N/N=C(\C)CC(=O)Nc1ccc2c(c1)OCCO2
  Vaccinia Venus = -11.2%; Vaccinia mCherry = i

[29] CCCc1cc(-c2n[nH]c(=S)n2C(C)c2ccccc2)cs1 (stereo not given)
  Vaccinia Venus = -14.6%; Vaccinia mCherry = -19.8%

[38] COc1ccc(CNCC(=O)Nc2cccc(S(N)(=O)=O)c2)cc1
  Vaccinia Venus = -6.1%; Vaccinia mCherry = i

[39] COc1ccccc1NC(=O)Cn1nnc(C(=O)NCCc2ccccc2)c1N
  Vaccinia Venus = -16.9%; Vaccinia mCherry = i

[45] CC(C)(C)N1C(=O)c2ccccc2NC(=O)N1Cc1ccc(Br)cc1
  Vaccinia Venus = ?; Vaccinia mCherry = i

[28] Cc1c(C)n2c(SCC(=O)NCc3ccc4c(c3)OCO4)nnc2[nH]c1=O
  Vaccinia Venus = -12.1%; Vaccinia mCherry = -11.7%

[26] Cc1cccc(-n2c(O)c(C=Nc3ccc(Br)cn3)c(=O)[nH]c2=O)c1
  Vaccinia Venus = 2.5%; Vaccinia mCherry = 13.3%

[34] COCCOC(=O)C1=C(C)NC2=C(C(=O)CCC2)C1c1ccc(N(C)C)cc1 (stereo not given)
  Vaccinia Venus = -8.5%; Vaccinia mCherry = i

[33] CC(=O)C1=C(O)C(=O)N(CCCN2CCOCC2)C1c1ccccc1[N+](=O)[O-] (stereo not given)
  Vaccinia Venus = -0.6%; Vaccinia mCherry = -1.4%

[35] COc1cccc(-c2cc3nc(-c4ccccc4)cc(N4CCC5(CC4)OCCO5)n3n2)c1
  Vaccinia Venus = -16.1%; Vaccinia mCherry = ?

[27] CC1CCN(S(=O)(=O)c2ccc3c(c2)N(CC(=O)NCCc2ccc(Cl)cc2)C(=O)CO3)CC1
  Vaccinia Venus = -10.7%; Vaccinia mCherry = -7.8%

[32] C[C@H]1CN([C@@H](C)CO)C(=O)CCCn2nncc2CO[C@@H]1CN(C)Cc1ccc2c(c1)OCO2
  Vaccinia Venus = -12.3%; Vaccinia mCherry = -23.4%

New compounds follow
[46] Cc1ccc2oc(-c3cccc(NC(=O)COc4ccc(Cl)cc4C)c3C)nc2c1
  Vaccinia Venus = -8.9%; Vaccinia mCherry = -6.2%

[47] COc1ccc(-c2[nH]c(-c3ccc(Cl)cc3)nc2SCC(=O)Nc2nccs2)cc1
  Vaccinia Venus = -22.1%; Vaccinia mCherry = 0.7%

[48] COc1ccc(S(=O)(=O)N2CCN(Cc3ccco3)CC2)cc1
  Vaccinia Venus = -4.2%; Vaccinia mCherry = -3.3%

[49] CCCCc1ccc(Nc2nc(N3CCOCC3)nc(N3CCOCC3)n2)cc1
  Vaccinia Venus = -9.9%; Vaccinia mCherry = -10.1%

[50] CCCCNC(=O)c1ccc2nc(CC)c(N(C)Cc3cccs3)n2c1
  Vaccinia Venus = -7.7%; Vaccinia mCherry = i

[51] O=P1(O)C=C(c2ccccc2)OC(c2ccccc2)=C1
  Vaccinia Venus = -1.5%; Vaccinia mCherry = -8.7%

[52] CN1CCN(C(=O)CSc2nnc(COc3ccc(Cl)cc3)o2)CC1
  Vaccinia Venus = -9.3%; Vaccinia mCherry = 0.9%

[53] CC(C)n1c(SCC(=O)NC2CCCCC2)nnc1-c1ccco1
  Vaccinia Venus = 4.5%; Vaccinia mCherry = -8.3%

[54] Cc1nc2nc(NCc3cccs3)nn2c(C)c1Cl
  Vaccinia Venus = -11.8%; Vaccinia mCherry = -3.2%

[55] CCCNS(=O)(=O)c1ccc(OCC(=O)N2CCc3ccccc3C2)c(C)c1
  Vaccinia Venus = -15.7%; Vaccinia mCherry = -12.8%

[56] COC(=O)CN1C(=O)CSc2ccc(S(=O)(=O)Nc3cccc(C)c3C)cc21
  Vaccinia Venus = -6.6%; Vaccinia mCherry = -14.7%

[57] Cc1ccc2nc(-c3ccc(Cl)c(NC(=O)c4ccc5c(c4)OCCO5)c3)oc2c1
  Vaccinia Venus = 20.9%; Vaccinia mCherry = -2.7%

[58] COc1ccc(OC)c(CNn2c(-c3ccccc3F)nc3ccccc3c2=O)c1
  Vaccinia Venus = -0.5%; Vaccinia mCherry = -4.7%

[59] O=C(c1ccc(Cl)c(S(=O)(=O)NCc2ccccc2)c1)N1CCN(c2ccccn2)CC1
  Vaccinia Venus = -22.8%; Vaccinia mCherry = -29.7%

[60] Cc1ccc(S(=O)(=O)c2c(C)nn(C(C)(C)C)c2OC(=O)CC(C)C)cc1
  Vaccinia Venus = -24.9%; Vaccinia mCherry = ?
